rRNA inh HTS: selective bacterial rRNA inhibition in E. coli. E. coli WT GFP vs humanized-ribosome RFP mutants, fluorescence, 24 h; hits give low values; DMSO median 0, no signal -100. GFP signal change (wild-type ribosome), % (concentration not given with the values). 350,000 tested, 1.6% active. AID 720706;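 active = significant combined selectivity score with lowered wild-type GFP, culture density cut under 30%, mutant RFP and density less affected; inactive = any of these conditions unmet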; also: one replicate is shown; some compounds called inactive have numbers as strong as hits
E coli growth: blocks Escherichia coli growth; OD600, 23 h; hits give low values; OD600 absorbance (no concentration beside the values); 330,000 tested, 0.21% active; AID 1053175;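 active = OD600 absorbance below the run mean of sample wells minus 3.6 SD, in any replicate, cut at about 0.56 in these data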;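 also: stock transfer was 300 nL into about 60 µL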
Beta2AR agonist: human beta-2 adrenergic receptor agonism by FAP. P07550. Am2.2-beta2AR cells, FAP receptor internalization, flow cytometry; reference of the scale not given here. response, % (no concentration beside the values). 340,000 tested, 0.43% active. AID 504454;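 active = response above a set limit, near 3 SD of response in nonfluorescent compounds, cut at about 42% in these data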;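 also: stock transfer was 100 nL into about 11 µL; a reference agonist was the positive control; negative values mostly stem from fluorescent compounds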
FGF22 binding: shifts melting point of recombinant human FGF22 | recombinant FGF22 thermal shift, SYPRO orange fluorescence; percent of sucrose octasulfate shift, DMSO zero | 340,000 tested, 1.5% active | Q9HCT0 | AID 651658 | calls only at 9.99 µM;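 active = melting point raised past a set limit in the mean and every replicate; three in four hits are not shown here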
ALR H2O2 inh: human ALR oxidase inhibition via reduced H2O2 | P55789 | purified ALR, DTT oxidation, H2O2 HRP-luminol luminescence | inhibition, % (concentration not given with the values) | 290,000 tested, 3.8% active;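 active = mean and each replicate at 75% or more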;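 also: stock transfer was 7.5 nL into about 7.5 µL; 0% = neutral wells and 100% = wells with inactivated enzyme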
Target sequence (P55789 whole entry, looked up): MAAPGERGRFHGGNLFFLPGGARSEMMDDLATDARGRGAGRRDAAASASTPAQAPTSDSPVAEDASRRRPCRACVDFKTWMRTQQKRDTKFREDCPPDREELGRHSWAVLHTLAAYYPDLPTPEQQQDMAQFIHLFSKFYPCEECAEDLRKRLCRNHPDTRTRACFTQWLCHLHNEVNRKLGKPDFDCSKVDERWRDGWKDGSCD
HNF4A DNA FP: change in binding of human HNF4 alpha to DNA | P41235 | HNF4a-FITC DNA binding, fluorescence polarization, 1 h | activity change, % at 10 µM | 360,000 tested, 0.3% active | AID 1224865; in the data active = activity change above about 30%, passing the limit was not always enough;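 also: controls were the assay level and a saturating level of protein; the project sought stronger binding though the title names inhibitors; some compounds called inactive have numbers as strong as hits; positive values seem to mean higher polarization but the record does not say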
Target sequence (P41235 whole entry, looked up): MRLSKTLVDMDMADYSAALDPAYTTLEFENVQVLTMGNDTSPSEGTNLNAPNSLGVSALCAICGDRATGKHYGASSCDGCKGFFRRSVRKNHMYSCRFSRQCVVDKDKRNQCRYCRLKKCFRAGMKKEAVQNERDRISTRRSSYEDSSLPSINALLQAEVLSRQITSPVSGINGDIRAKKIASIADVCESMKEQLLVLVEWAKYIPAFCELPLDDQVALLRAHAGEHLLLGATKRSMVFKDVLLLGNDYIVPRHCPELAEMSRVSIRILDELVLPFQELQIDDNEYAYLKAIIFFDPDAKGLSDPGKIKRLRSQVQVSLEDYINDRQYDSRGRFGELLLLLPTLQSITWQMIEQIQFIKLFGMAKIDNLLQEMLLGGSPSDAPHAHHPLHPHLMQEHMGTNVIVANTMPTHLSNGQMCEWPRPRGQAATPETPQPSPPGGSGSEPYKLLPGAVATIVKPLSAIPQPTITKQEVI
UCH37 DUB inh: inhibitors of human deubiquitinating enzyme UCH37; Q9Y5K5; purified proteasome/UCH37, Ub-AMC cleavage fluorescence; inhibition, % (test concentration not listed); 330,000 tested, 0.33% active; AID 588478;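 active = mean of two replicates above 20%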;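 also: 0% = compound-free wells with enzyme and 100% = wells lacking proteasome; stock transfer was 100 nL into about 20 µL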
Target sequence (Q9Y5K5 whole entry, looked up): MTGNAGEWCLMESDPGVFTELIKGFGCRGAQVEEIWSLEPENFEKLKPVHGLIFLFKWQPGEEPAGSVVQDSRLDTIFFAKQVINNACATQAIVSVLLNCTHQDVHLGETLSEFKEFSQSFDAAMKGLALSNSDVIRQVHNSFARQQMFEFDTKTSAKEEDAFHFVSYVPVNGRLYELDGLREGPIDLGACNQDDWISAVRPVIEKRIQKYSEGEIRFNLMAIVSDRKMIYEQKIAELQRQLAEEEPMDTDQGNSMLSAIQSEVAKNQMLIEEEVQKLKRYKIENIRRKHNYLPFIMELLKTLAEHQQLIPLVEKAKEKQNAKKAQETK
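Material: Human UCH37 enzyme supplied as purified proteasome complex | Schedule: 30 min compound-proteasome preincubation then 25 min substrate reaction, room temperature | Detection: AMC fluorescence from Ub-AMC cleavage, excitation 355 nm, emission 460 nm | Benchmarks: Wells without proteasome as full block, compound-free enzyme plus substrate as uninhibited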
rRNA inh HTS OD600: also measured in rRNA inh HTS; calls as there; OD600 change, %; measured here: OD600 growth;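 optical density of the mix in the first replicate; 0 = DMSO median and -100 = no signal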
rRNA inh HTS RFP: also measured in rRNA inh HTS; calls as there; RFP signal change, %; measured here: RFP humanized mutant strains;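 first replicate; 0 = DMSO median and -100 = no signal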
Numbers without * were called inactive; i = inactive; x = no result given. Some of the compounds tested; count on the stated rates, not on these rows.

Values in the order – E coli growth, UCH37 DUB inh, ALR H2O2 inh, rRNA inh HTS OD600, Beta2AR agonist, FGF22 binding, rRNA inh HTS RFP, rRNA inh HTS, HNF4A DNA FP
CC(=O)c1c(NC(=O)C(C)C)nc(C)nc1-c1ccccc1
→ 0.78, 5.4, -21, x, 7, x, x, x, -0.1
CC(C)(C)NC(=O)CSc1nc2ccc(NC(=O)CSc3nnnn3Cc3ccccc3)cc2s1
→ 0.73, 6.5, 32, x, 15, x, x, x, -1.7
CCOc1cc(C)c(C(C)C)cc1S(=O)(=O)N1CCN(C)CC1
→ 0.74, 1.5, -12, x, 3, x, x, x, -0.2
CC1(C)Cc2ccccc2-c2nnc(SCC(=O)N3CCN(c4ccccc4)CC3)n21
→ 0.7, 3.7, 97*, x, 7, x, x, x, 0.5
COC(=O)CNC(=S)NC(=O)c1ccc(C(C)(C)C)cc1
→ 0.67, -1.2, x, -16, 1, x, -4.9, -6, 3.8
C=CCn1c(N)c(C(=O)NCC2CCCO2)sc1=S (configuration not stated)
→ 0.71, 14, 99*, x, -5, x, x, x, 2.4
CC(=O)N1CCCc2cc(S(=O)(=O)N3CCCC(C(=O)NCc4ccc(Cl)cc4)C3)ccc21 (configuration not stated)
→ 0.66, 3.2, -2, -11, -1, i, 8.7, -5, 2.3
CC(C)(O)c1cc2ccccc2c(=O)o1
→ x, 4.9, -4, 6, -6, i, 10, 11, 0.2
O=C1CC(N2CCN(Cc3ccccc3)CC2)C(=O)N1c1ccc2c(c1)OCCO2 (configuration not stated)
→ 0.71, 0.9, -6, x, -4, x, x, x, 0.4
CCN1CCN(c2nc3c(C)cccn3c(=O)c2/C=C(\C#N)S(=O)(=O)c2ccccc2)CC1
→ 0.66, 0.7, -16, x, 0, x, x, x, -8.0

In another format: entries from further up
SMILES | E coli growth | UCH37 DUB inh | ALR H2O2 inh | rRNA inh HTS OD600 | Beta2AR agonist | FGF22 binding | rRNA inh HTS RFP | rRNA inh HTS | HNF4A DNA FP
O=C1CC(N2CCN(Cc3ccccc3)CC2)C(=O)N1c1ccc2c(c1)OCCO2 (configuration not stated) | 0.71 | 0.9 | -6 | x | -4 | x | x | x | 0.4
CCOc1cc(C)c(C(C)C)cc1S(=O)(=O)N1CCN(C)CC1 | 0.74 | 1.5 | -12 | x | 3 | x | x | x | -0.2
C=CCn1c(N)c(C(=O)NCC2CCCO2)sc1=S (configuration not stated) | 0.71 | 14 | 99* | x | -5 | x | x | x | 2.4
CC(=O)N1CCCc2cc(S(=O)(=O)N3CCCC(C(=O)NCc4ccc(Cl)cc4)C3)ccc21 (configuration not stated) | 0.66 | 3.2 | -2 | -11 | -1 | i | 8.7 | -5 | 2.3
CC(C)(C)NC(=O)CSc1nc2ccc(NC(=O)CSc3nnnn3Cc3ccccc3)cc2s1 | 0.73 | 6.5 | 32 | x | 15 | x | x | x | -1.7

(more compounds)
Values in the order – E coli growth, UCH37 DUB inh, ALR H2O2 inh, rRNA inh HTS OD600, Beta2AR agonist, FGF22 binding, rRNA inh HTS RFP, rRNA inh HTS, HNF4A DNA FP
CN(C)c1c(N)[nH]c2c(c1=O)c(=O)n(C)c(=O)n2C
→ 0.71, 0.6, 4, -24, -1, i, -9.7, 30, 2.2
Cc1ccc(NC(=O)COC(=O)Cn2ccc(=O)[nH]c2=O)cc1C
→ 0.72, 1.7, 4, 16, 0, i, 1.7, 8, -3.8
Cn1c(SCC(=O)NCc2ccc3c(c2)OCO3)nnc1C1COc2ccccc2O1 (configuration not stated)
→ 0.72, 0.9, -21, x, -3, x, x, x, 3.6
COc1ccc(C(=O)NC(CC(=O)O)c2cc([N+](=O)[O-])ccc2Cl)c(SC)c1 (configuration not stated)
→ 0.66, 2.4, -7, 11, 1, i, 1.5, 15, 1.8
CN(C(=O)COC(=O)c1ccccc1SCC(=O)NC1CCCCCCC1)C1CCS(=O)(=O)C1 (configuration not stated)
→ 0.72, -1.7, -4, x, -4, x, x, x, 5.0
O=C(Cn1cc2c(n1)CCCCC2)NC1CCCCCC1
→ 0.71, 2.9, -4, -22, -11, i, -2.2, -1, 6.8
O=C(O)Cn1c(SC2CCCCC2)nc2ccccc21
→ 0.73, 0.8, 4, x, 6, x, x, x, 1.0
O=C1C=CN(C(=O)Oc2ccccc2)CC1
→ 0.64, 5.2, 0, 11, -8, i, 0.0, 3, 1.2
O=[N+]([O-])c1ccc(S(=O)(=O)NCC(c2cccnc2)N2CCc3ccccc32)cc1 (configuration not stated)
→ 0.66, 5.0, 35, -4, 6, i, -1.7, -7, 1.6
COc1ccc(-c2c3c(=O)n(C)c(=O)n(C)c3cn2NC(C)=O)cc1
→ 0.67, -1.3, -2, x, 3, x, x, x, 6.0
OCCN1CCN(C(=S)Nc2ccccc2)CC1
→ 0.67, 5.7, -5, 7, -5, i, -0.1, 15, -3.4
CNc1cc(=O)n(C)c(=O)n1-c1ccccc1
→ 0.67, 1.9, -6, 2, -1, i, 2.3, 13, -1.3
Cn1c(=O)[nH]c(=O)c2c1nc(N1CCCCC1)n2CCSc1ncccn1
→ 0.67, 3.1, x, 13, -20, i, -2.1, 0, -0.1
O=C(CN(Cc1ccco1)C(=O)CNS(=O)(=O)c1ccccc1)NC1CCCCC1
→ 0.72, 1.2, x, x, -3, x, x, x, 5.5
CC1CCCN(CCCN2C(=O)C3C(C(=O)Nc4cccc(Cl)c4)C4C=CC3(O4)C2C(=O)NC2CCCCC2)C1 (configuration not stated)
→ 0.69, 0.1, -2, 0, 9, x, 0.4, 3, -1.1
COc1ccc(CNC(=O)[C@H](C)NC(=O)[C@@H]2Cc3ccccc3CN2)cc1
→ 0.69, 0.9, 2, 5, -1, i, 2.2, 3, 5.5
O=C(Cn1nc(-c2cccc([N+](=O)[O-])c2)c2ccccc2c1=O)NCC1CCCO1 (configuration not stated)
→ 0.68, 1.8, -1, 17, -10, i, 0.3, 9, 0.7
COc1ccc(Cn2nnnc2CN(Cc2cc3cccc(C)c3[nH]c2=O)C2CCCC2)cc1
→ 0.7, 4.8, 1, 5, 3, i, -2.2, 8, 0.8
Cc1nc2cc(N)ccc2n1C1CCCCC1
→ 0.7, -0.8, 100*, 10, -4, i, 2.4, 1, 1.8
O=c1[nH]c(SCc2c(Cl)cccc2Cl)nc2ccccc12
→ 0.7, 1.6, -18, 7, -2, i, 0.0, 16, 2.7
CC(=O)C1C(c2ccc(F)cc2)NC(=O)NC1(O)C(F)(F)F (configuration not stated)
→ 0.64, 1.2, -1, x, 2, x, x, x, -0.1
CC(OC(=O)Cc1c[nH]c2ccccc12)C(=O)NC1(C#N)CCCCC1 (configuration not stated)
→ 0.68, 0.0, 3, -5, 0, i, 2.2, -1, 2.1
CC(=O)c1cccc(NC(=O)COc2ccc3oc(=O)cc(C)c3c2)c1
→ 0.78, -8.8, -24, x, -1, i, x, x, 2.1
Cc1ccc2c(C)c(C(=O)Nc3cccnc3)oc2c1C
→ x, x, x, 17, -4, i, 0.9, 18, 2.0
O=C(NCCCN1CCCCC1)c1ccc2c(=O)n(CCc3ccccc3)c(=O)[nH]c2c1
→ 0.7, -25, -1, x, 5, x, x, x, 2.6
CC1CN(C(=O)c2ccn(C)n2)CC(C)O1 (configuration not stated)
→ 0.71, 3.8, x, -1, 7, i, 3.7, -10, 1.3
Clc1ccc2c(NCc3ccccn3)ncnc2c1
→ 0.73, -0.4, x, x, 7, x, x, x, -2.0
CCCCC(OC(=O)CN1C(=O)COc2ccccc21)C(=O)NC1CCCCC1 (configuration not stated)
→ 0.71, 1.3, -3, -1, -5, i, -0.6, -1, -0.4
O=C(Nc1cccc(NC(=O)c2ccco2)c1)c1cnccn1
→ 0.66, 0.9, -4, 3, -24, x, -1.6, 0, -1.1
Cc1cccc(C(=O)N(Cc2cccs2)C2CCS(=O)(=O)C2)c1 (configuration not stated)
→ 0.68, 0.0, -15, 8, -9, i, -2.3, 2, 5.9
Cc1ccc(SCC(=O)N2CCN(c3ccccn3)CC2)cc1
→ 0.72, 0.0, 1, -15, -1, i, -3.9, -12, -2.9
O=C(NCC(c1ccco1)N1CCc2ccccc2C1)C(=O)Nc1cc(F)ccc1F (configuration not stated)
→ 0.69, -0.8, -1, -4, 3, i, -0.5, 0, -3.3
CC(C)n1c(O)c(N=NC(=O)CNC(=O)Cc2ccc(Cl)cc2)c2ccccc21
→ x, x, -42, -45, -16, i, 9.6, -34, 0.4
Cc1csc(NC(=O)c2cccc(C)c2C)n1
→ 0.67, 1.3, 1, x, 0, x, x, x, -0.8
OCCCC1CCCCN1Cc1nc(Cc2ccccc2Cl)no1 (configuration not stated)
→ 0.7, -1.7, -20, -1, -3, i, 3.7, -3, -1.3
CC(C)CCn1nnnc1CN1CCN(C(c2ccccc2)c2ccccc2)CC1
→ 0.68, -0.7, -1, -9, 7, i, 0.7, -11, 4.2
COc1cccc(CN2CCC(C(=O)N3CCN(Cc4ccc5c(c4)OCO5)CC3)CC2)c1OC
→ 0.7, 1.6, -2, 12, 5, i, 4.3, 12, 1.3
COCCCNC(=O)c1ccc2c3c(onc13)-c1ccccc1C2=O
→ 0.66, 24*, 13, x, 23, x, x, x, -2.0
Cc1cc(OCCCC(=O)NCCc2nnc3ccccn23)ccc1Cl
→ 0.62, 2.0, -6, 12, 5, i, 1.6, 8, -2.0
Cc1cccc2[nH]c3c(N4CCN(C(=O)c5ccco5)CC4)ncnc3c12
→ 0.74, -85, 16, x, -2, x, x, x, -1.0
CC(C)COP(=O)(OCC(C)C)C(Nc1ccccc1)c1ccccc1 (configuration not stated)
→ 0.71, 2.6, x, -9, 6, i, -1.5, -8, -1.5
CN(C)CCN=c1cc(-c2ccccc2)oc2ccc(Cl)cc12
→ 0.61, 6.1, x, 40, -17, i, 1.9, 9, -1.7
CCN(CC)C(=O)CSc1nc(COc2ccccc2)nc2ccccc12
→ 0.66, 3.4, 45, 6, -1, i, -1.5, 1, -0.5
Cc1ccc(NC(=S)NCc2ccccc2)cc1S(=O)(=O)N1CCCCC1
→ 0.61, 0.1, -10, -11, -2, i, -0.4, -11, 0.6
COCc1ccc(C(=O)Nc2ccccc2C(=O)NCc2cccnc2)cc1
→ 0.68, 5.8, 8, 2, -9, i, -2.0, 5, -0.1
Cc1ccccc1NC(C)C(=O)N/N=C/c1ccccc1OCc1cccc(Br)c1 (configuration not stated)
→ x, x, -1, x, -3, x, x, x, 4.9
CCn1cnc2cc(NC(=O)c3cccs3)ccc21
→ 0.69, 3.1, x, 6, -12, i, 0.2, 6, -1.9
O=C(Cc1c(F)cccc1Cl)Nc1nccs1
→ 0.6, 4.4, -1, -3, -6, i, -5.1, -1, -1.1
O=C(Cc1ccccc1)c1c[nH]c(C(=O)NCCCn2ccnc2)c1
→ 0.69, 2.6, -14, 0, x, i, 2.1, 2, x
C[n+]1cccc2cccc([O-])c21
→ 0.67, 3.8, x, x, 4, i, x, x, -17
